Menin-MLL FL inh: inhibitors of human menin-MLL interaction, wild-type MLL peptide; Fluorescence polarization, fluorescein-MLL peptide displacement from menin; FP activity change, % at 61.4 µM; 290,000 tested, under 10 active; inconclusive = falling polarisation curve, or a change in total fluorescence; inactive = total fluorescence flat and polarisation flat or rising; no compound was filed as active; the % refers to the polarisation; negative = inhibition;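 also: % of control where 0% means no effect; inhibitors lower the polarisation; unlabelled MLL peptide was the positive control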
gsp ag: gsp mutant agonism; Potency, µM (top dose mostly 76.9 µM), without a hit: at the highest dose activation (cAMP increase), most hits filed as activators; gsp mutant cells, cAMP HTRF, 30 min; control for the full effect not named in the record; AID 624287; 340,000 tested, 0.13% active; active = well fitted activation curve with a large enough effect; inconclusive = small, poorly fitted or top-dose-only effect, or another doubt; inactive = no such curve, though single readings can be large or run the other way; cell line not stated here;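 also: phosphodiesterase inhibitor Ro 20-1724 added with compounds to block cAMP breakdown; potency is read from the fitted curve at half-maximal effect; nearly all actives have a fitted effect of over 60% in size; about a fifth of the inactives were tested at one dose only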
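Cells in DMEM/10% FBS with G418 were pretreated with compounds in DMSO plus […] (300 uM stock) for 30 min at 37C. cAMP was measured by HTRF (cAMP-d2 plus anti-cAMP antibody-K) after 30 min at room temperature.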
ClpP mod: qHTS Assay for Activators of ClpP; AID 651965, 2013; ATP-dependent Clp protease proteolytic subunit (Bacillus subtilis (strain 168)), P80244; purified B. subtilis ClpP, FRET peptide cleavage, 20 min; Potency, µM (doses to about 57.5 µM), inactives show at the highest dose activity change, negative = active; 340,000 tested, 1.9% active; active = well fitted falling curve with a large enough effect; inconclusive = small, poorly fitted or top-dose-only effect; inactive = no such curve, though single readings can be large or run the other way; also: potency is read from the fitted curve at half-maximal effect; the source files actives as falling curves though it sought activators and does not explain the sign; nearly all actives have a fitted effect of over 65% in size; many hits overshoot -100%
Target sequence (P80244 whole entry, looked up): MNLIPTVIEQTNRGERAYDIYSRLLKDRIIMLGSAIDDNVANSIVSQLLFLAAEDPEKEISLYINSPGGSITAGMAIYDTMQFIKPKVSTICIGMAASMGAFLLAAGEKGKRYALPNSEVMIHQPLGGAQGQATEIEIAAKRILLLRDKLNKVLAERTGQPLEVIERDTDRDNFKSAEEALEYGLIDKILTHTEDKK
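FRET quenching reversal measured ClpP activation: 10 microg/mL B. subtilis ClpP at pH 8 with the FRET-FV decapeptide, read at 430 nm after 320 nm excitation. The 20-min minus 0-min signal was scaled between DMSO/no-enzyme wells and ADEP (5.8 microM final).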
TRPV1 PAM: potentiators of human vanilloid receptor 1 (TRPV1). potentiation, % at 8.33 µM. 320,000 tested, 0.02% active. TRPV1-expressing cells, Fluo-8 calcium influx, capsaicin EC20 potentiation; host cell line not named in the record; control for the full effect not named in the record. Q8NER1. AID 540277; active means potentiation above 80%; inconclusive means 30% to 80%; inactive means below 30%; also: 0% is about no effect
Target sequence (Q8NER1 whole entry, looked up): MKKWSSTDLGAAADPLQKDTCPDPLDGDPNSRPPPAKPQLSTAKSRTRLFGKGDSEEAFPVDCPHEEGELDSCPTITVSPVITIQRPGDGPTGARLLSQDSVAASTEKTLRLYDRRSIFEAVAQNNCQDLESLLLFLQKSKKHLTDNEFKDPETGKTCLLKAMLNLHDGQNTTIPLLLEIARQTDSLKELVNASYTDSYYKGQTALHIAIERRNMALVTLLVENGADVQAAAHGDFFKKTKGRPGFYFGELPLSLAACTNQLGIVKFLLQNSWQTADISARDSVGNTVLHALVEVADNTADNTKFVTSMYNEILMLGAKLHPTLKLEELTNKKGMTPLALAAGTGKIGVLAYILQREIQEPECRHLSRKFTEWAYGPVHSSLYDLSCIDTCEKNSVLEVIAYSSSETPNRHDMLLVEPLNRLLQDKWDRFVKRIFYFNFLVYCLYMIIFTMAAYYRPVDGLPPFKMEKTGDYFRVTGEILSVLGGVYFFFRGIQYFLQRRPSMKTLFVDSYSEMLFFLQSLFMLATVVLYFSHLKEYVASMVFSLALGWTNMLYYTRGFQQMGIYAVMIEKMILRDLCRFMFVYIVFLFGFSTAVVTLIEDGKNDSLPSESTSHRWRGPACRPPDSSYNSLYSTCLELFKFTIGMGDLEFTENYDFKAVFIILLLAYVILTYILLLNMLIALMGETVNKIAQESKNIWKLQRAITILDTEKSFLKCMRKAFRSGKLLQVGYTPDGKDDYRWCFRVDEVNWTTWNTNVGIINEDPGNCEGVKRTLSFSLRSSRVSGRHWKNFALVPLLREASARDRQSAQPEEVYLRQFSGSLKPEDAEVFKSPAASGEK
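Cells expressing TRPV1 were dye-loaded with Fluo-8 and read kinetically: 10 s baseline, 3 min after compound (agonist portion), then 2 min after EC20 capsaicin (allosteric enhancer portion). Calcium-bound dye fluorescence at 480/520 nm.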
CtBP-E1A inh: blocks the CtBP interaction with E1A; AlphaScreen GST-E1A/His-CtBP binding, 1536-well; hits give low values; control for the full effect not named in the record; activity change, % (concentration not given with the values); 340,000 tested, 0.49% active; AID 651724; in the data active means activity change below about -65%; inconclusive means about -30% to -65%; inactive means above about -30%; also: % is scaled to controls: 0 for no effect and ±100 for the full control effect
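AlphaScreen with 125 nM GST-E1A and 125 nM His-CtBP (5X stocks) in Tris pH 8.0, 300 mM NaCl, BSA, Tween 20, TCEP. Compounds preincubated 2 h at 37 deg C, then glutathione donor/nickel acceptor beads added for 1 h at 37 deg C in dark.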
Sfp inh: inhibitors of Bacillus subtilis Sfp phosphopantetheinyl transferase. Biochemical Sfp PPTase activity, qHTS. Potency, µM, inactives show max response, negative = inhibition, usual class: inhibitors. 310,000 tested, 3.5% active; active = well fitted inhibition curve with a large enough effect; inconclusive = small, poorly fitted or top-dose-only effect, or another doubt; inactive = no such curve, though single readings can be large or run the other way;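 also: the enzyme is Sfp with the accession as filed and its product quenches rhodamine fluorescence; potency is read from the fitted curve at half-maximal effect; 0% = enzyme reaction without inhibitor and -100% = no enzyme wells; top concentration of the series not given in the record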
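Step 1, compound plus 15 nM Sfp-PPTase, 15 min, room temperature. Step 2, add rhodamine-CoA (5 uM) and BHQ-2-YbbR (12.5 uM). Step 3, read 525/598 nm fluorescence at 0 and 30 min.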
gsp antagonist: gsp mutant antagonism | gsp-mutant cells, cAMP HTRF, 30 min; control for the full effect not named in the record | Potency, µM (top dose mostly 76.9 µM), for inactives: top-dose activity change, negative = inhibition, actives largely listed as inhibitors | 340,000 tested, 0.4% active | AID 624288; active = falling curve of any shape with a large fitted effect; inconclusive = falling curve, mostly with a smaller effect; inactive = flat or rising curve; cell line not stated here;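 also: intracellular cAMP measured with PDE inhibitor Ro 20-1724 present during compound exposure; potency is read from the fitted curve at half-maximal effect; % is scaled to controls: 0 for no effect and ±100 for the full control effect; nearly all actives have a fitted effect of over 65% in size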
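Cells, 2000/well, grown 16–24 h in DMEM 10% FBS with 0.5 mg/ml G418, then compounds plus […] (300 uM addition stock), 30 min at 37C. cAMP read by HTRF (cAMP-d2 and anti-cAMP antibody-K in lysis buffer) after 30 min RT.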
Numbers without * were called inactive; ? = inconclusive; nt = not tested or not shown; & = joins results of further samples; [ ] = another dose, or the depositor's remark.

1	Cc1cc(=O)[nH]c2ccc(S(=O)(=O)N3CCOCC3)cc12
2	CCOc1ccc(NS(=O)(=O)c2ccc(NC(=O)c3ccccn3)cc2)cc1
3	C=CCNC(=O)COC(=O)c1cc(S(=O)(=O)N2CCCCC2)ccc1Cl
4	CN(C)c1ccc(/C=C2/C[N+](C)(C)C/C(=C/c3ccc(N(C)C)cc3)C2=O)cc1
5	COc1ccc(/C(C)=N/NC(=O)CCC(=O)Nc2ccc(Cl)cc2Cl)c(OC)c1
6	O=C(c1ccc(Cl)c(S(=O)(=O)N2CCOCC2)c1)N1CCN(c2ccccc2)CC1
7	C=CCSc1nnc(NC(=O)CSc2nc3ccccc3[nH]2)s1
8	COCCn1cnc2c1c(=O)n(CC(=O)OCC#N)c(=O)n2Cc1ccccc1

compound no. | 1 | 2 | 3 | 4 | 5 | 6 | 7 | 8
Menin-MLL FL inh | 0.0 | nt | 0.0 | nt | 1.1 | nt | 0.4 | -2.9
gsp ag | 12% | 12% | 17% | ? | ? | 7%[15.4 µM] | 4% | ?
ClpP mod | -4.3% | -4.7% | nt | 1.5% | 0.3% | -2.9% | -0.8% | nt
TRPV1 PAM | -1 | -7 | -1 | nt | ? | 1 | -7 | 10
CtBP-E1A inh | 10 | 0 | 4 | 13 | -8 | 6 | -6 | 9
Sfp inh | 21% | nt | 10% | nt | -8% | 5% | 17% | 10%
gsp antagonist | 4% | -4% | 5% | ? | -9% | 2% | ? | -4%

9	O=C(/C=C/c1ccco1)NCCCN1CCN(CCCNC(=O)/C=C/c2ccco2)CC1
10	CC(C)c1ccc(N2C=Nc3ccc(C(C)C)cc3C2)cc1
11	COc1ccc(-c2noc(CCC(=O)NC3CCCCC3)n2)cc1
12	O=C(CCC(=O)OCc1ccc([N+](=O)[O-])cc1)Nc1ccc(F)cc1
13	Cc1cc(C)cc(N(C(=O)c2csnn2)C(C(=O)NC2CCCC2)c2ccccn2)c1 (stereo not drawn)
14	O=[N+]([O-])c1ccccc1Oc1ccc(S(=O)(=O)N2CCOCC2)cc1
15	CC(C=NNc1ccc([N+](=O)[O-])cn1)=Cc1ccccc1
16	COc1ccc(N2CCN(C(=O)C3CCCN(S(=O)(=O)c4ccc(F)cc4)C3)CC2)cc1 (stereo not drawn)

compound no. | 9 | 10 | 11 | 12 | 13 | 14 | 15 | 16
Menin-MLL FL inh | 4.6 | 5.1 | 1.3 | 2.9 | -4.3 | nt | nt | nt
gsp ag | -36% | 7%[15.4 µM] | ? | -22% | -1%[15.4 µM] | -331%[inhibitor] | -15% | -11%
ClpP mod | 1.2% | -2.7% | 0.2% | -0.3% | -2.8% | 1.5% | nt | 2.4%
TRPV1 PAM | -3 | -19 | -18 | 6 | -26 | 6 | nt | 0
CtBP-E1A inh | 9 | -1 | 3 | nt | -12 | -20 | 4 | -6
Sfp inh | 12% | ? | 18% | 4% | 8% | nt | nt | -15%
gsp antagonist | 3% | -8% | 14% | 7% | 7% | 0% | 5% | -8%

17	COc1cc(SC)ccc1C(=O)Nc1ccc2c(c1)OCO2
18	CS(=O)(=O)NCC(c1ccco1)N1CCN(c2ccc(F)cc2)CC1 (stereo not drawn)
19	O=c1oc2cc([N+](=O)[O-])ccc2nc1/C=C(O)/C=C/c1ccccc1
20	COC(=O)c1ccccc1NC(=O)Cn1c(-c2nonc2N)nc2ccccc21
21	FC(F)(F)c1cccc(NC(=S)NCC2COc3ccccc3O2)c1 (stereo not drawn)
22	Cc1ccccc1NC(=O)Cn1cnc2c(oc3ccccc32)c1=O
23	CC(NC(=O)Cc1c(F)cccc1Cl)C1CCCO1 (stereo not drawn)
24	O=C1CC2(CCCC2)C(=O)N1CN1CCN(S(=O)(=O)c2cc(F)ccc2F)CC1

compound no. | 17 | 18 | 19 | 20 | 21 | 22 | 23 | 24
Menin-MLL FL inh | 0.7 | 3.5 | 24 | 6.8 | 3.0 | -0.4 | -2.1 | nt
gsp ag | 25% | -15% | nt | ? | 10% | ? | -23% | -62%[inhibitor]
ClpP mod | -1.8% | -0.7%&-2.8% | nt | -4.3% | -2.6% | 0.9% | 1.3% | -0.1%
TRPV1 PAM | 2 | -8 | ? | 8 | 11 | -2 | 2 | nt
CtBP-E1A inh | -3 | 7 | nt | 1 | nt | 1 | 1 | 3
Sfp inh | 5% | 1% | 50µM* | 3% | 9% | ? | 21% | nt
gsp antagonist | -7% | 5% | nt | -2% | 1% | 12% | 0% | nt

25	c1ccc2nc(N3CCN(Cc4ccc5c(c4)OCO5)CC3)cnc2c1
26	Cc1ccsc1C(=O)NNC(=S)NC1CCCCC1
27	CCOCCCNC(=S)N1CCC(NC(=O)C23CC4CC(CC(C4)C2)C3)CC1
28	Cc1nn(-c2ccccc2)c(C)c1/C=C/C(=O)OC(C)C(=O)Nc1ncc(Cl)cc1Cl (stereo not drawn)
29	COc1cccc(OC)c1C(=O)N1CCN(S(=O)(=O)c2ccc(C)cc2)CC1
30	COC(=O)c1nc(NC(=S)NC(=O)c2cccs2)sc1C
31	O=C(Nc1cccs1)NC1CCCC1
32	OC(CNCCCCNCC(O)C(F)(F)F)C(F)(F)F (stereo not drawn)

compound no. | 25 | 26 | 27 | 28 | 29 | 30 | 31 | 32
Menin-MLL FL inh | -0.1 | nt | 0.1 | 8.1 | 1.8 | nt | 4.1 | -1.8
gsp ag | 4%[15.4 µM] | -60%[inhibitor] | 1%[15.4 µM] | 0% | 5% | 0%[15.4 µM] | 1% | -4%
ClpP mod | nt | 30% | -0.9% | -3.8% | -0.4% | -1.7% | -1.8% | nt
TRPV1 PAM | -2 | -8 | -8 | -20 | -9 | 12 | 4 | -1
CtBP-E1A inh | -4 | 5 | -4 | 13 | -11 | -2 | 4 | 5
Sfp inh | 3% | 7% | 11% | 15% | 7% | -21% | -7% | 4%
gsp antagonist | nt | -15% | 5% | -14% | -2% | 0% | 5% | 3%

33	Cc1ccc2nc(Nc3ccc(C)c(C)c3)c3nncn3c2c1
34	COc1ccc(/C=C/C(=O)Nc2ccccc2F)cc1S(=O)(=O)N1CCOCC1
35	CCC(=O)N=c1ccn(C2=Nc3ccccc3NC2=C(C#N)C#N)cc1
36	Cc1noc(C)c1COc1ccccc1C(=O)N1CCN(S(=O)(=O)c2cccc([N+](=O)[O-])c2)CC1
37	O=C(NC1CCCCCC1)C1CCCN(c2ncccn2)C1 (stereo not drawn)
38	CCCn1c(SCC(=O)c2ccc(OC)c(OC)c2)nc2c1c(=O)n(C)c(=O)n2C
39	Cc1onc(-c2ccccc2)c1C(=O)OCC(=O)N(C)c1ccccc1
40	COCc1nnc(NC(=O)c2ccc(Cl)cc2[N+](=O)[O-])s1

compound no. | 33 | 34 | 35 | 36 | 37 | 38 | 39 | 40
Menin-MLL FL inh | -1.5 | nt | 5.9 | nt | -8.5 | -2.3 | nt | 3.0
gsp ag | ? | -5%[15.4 µM] | 3%[15.4 µM] | -4% | 19% | 7% | -18%[15.4 µM] | -14%
ClpP mod | 3.4% | -14% | nt | 0.4% | -17% | -6.3% | 0.7% | -5.5%
TRPV1 PAM | 6 | nt | 13 | 0 | -10 | -34 | nt | -3
CtBP-E1A inh | 6 | ? | -17 | 1 | 1 | 1 | 16 | -3
Sfp inh | -22% | nt | 13% | nt | 14% | -4% | nt | -3%
gsp antagonist | -2% | -17% | 8% | -19% | -1% | -9% | -4% | 2%

Whole records from above:
CCC(=O)N=c1ccn(C2=Nc3ccccc3NC2=C(C#N)C#N)cc1 is listed as Menin-MLL FL inh: 5.9; gsp ag: 3%[15.4 µM]; ClpP mod: nt; TRPV1 PAM: 13; CtBP-E1A inh: -17; Sfp inh: 13%; gsp antagonist: 8%
CCCn1c(SCC(=O)c2ccc(OC)c(OC)c2)nc2c1c(=O)n(C)c(=O)n2C is listed as Menin-MLL FL inh: -2.3; gsp ag: 7%; ClpP mod: -6.3%; TRPV1 PAM: -34; CtBP-E1A inh: 1; Sfp inh: -4%; gsp antagonist: -9%

Next entries.
41	Cc1csc(NC(=O)Cc2ccccc2Cl)n1
42	Cc1ccc(-c2nc(C3CCN(S(=O)(=O)c4ccc(C(F)(F)F)cc4)CC3)no2)cc1
43	COc1ccccc1C=NNC(=O)c1ccccc1OCCOc1ccccc1
44	CCN1C(=O)S/C(=C/c2ccsc2)C1=O
45	N#CCCn1cc(/C=N/NC(N)=S)c(-c2ccc(Br)cc2)n1
46	CCN(C[C@H]1N[C@@](Cc2ccccc2)(C(=O)OC)[C@H]2C(=O)N(Cc3ccccc3)C(=O)[C@@H]12)C(=O)Nc1ccc(F)cc1
47	C/C(CC(=O)Nc1ccccn1)=N\NC(=O)c1ccc([N+](=O)[O-])cc1Cl
48	COc1ccccc1OCCn1cc(/C=C(\C#N)C(=O)NCc2cccs2)c2ccccc21
49	COC(=O)c1ccccc1NC(=O)Cn1cnc2c(cnn2-c2ccccc2)c1=O
50	O=C(NC(=S)Nc1cccc(O)c1)C12CC3CC(CC(C3)C1)C2

compound no. | 41 | 42 | 43 | 44 | 45 | 46 | 47 | 48 | 49 | 50
Menin-MLL FL inh | -1.5 | 2.8 | nt | 2.4 | 0.0 | nt | -1.4 | 4.9 | 4.6 | nt
gsp ag | ? | -24% | 0%[15.4 µM] | -24% | -9% | nt | 22%[15.4 µM] | -42%[inhibitor] | -3% | -134%[inhibitor]
ClpP mod | nt | -1.8% | 1.4% | -3.7% | nt | 0.8% | nt | -1.7% | -2.2% | -2.9%
TRPV1 PAM | 6 | 7 | nt | -15 | 5 | nt | -3 | 8 | -10 | nt
CtBP-E1A inh | 2 | 7 | -4 | 1 | -6 | -1 | 23 | -2 | 3 | -10
Sfp inh | 13% | 16% | nt | -12% | 18% | nt | 3% | 15% | 22% | nt
gsp antagonist | 0% | 12% | ? | -5% | -8% | -14% | -50% | 2% | 12% | nt

Screening results deposited in PubChem by National Center for Advancing Translational Sciences (NCATS).
